Compound activity: PubChem BioAssay, National Center for Advancing Translational Sciences (NCATS)
RE007 growth inh = less growth of the S. pombe RE007 Vpr strain | S. pombe RE007 Vpr strain, BacTiter-Glo ATP luminescence, 24 h; control for the full effect not named in the record | Potency, µM (series often up to 92.2 µM), for inactives: at the top dose activity change, negative = less growth | actives 0.21% (n = 360,000) | AID 651644; active = well fitted falling curve with a large enough effect; inconclusive = small, poorly fitted or top-dose-only effect; inactive = no such curve, though single readings can be large or run the other way;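 further: nearly all actives have a fitted effect of over 50% in size; the assay follows cell death caused by Vpr and the record does not say whether a fall means rescue or toxicity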
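Fission yeast strain RE007, carrying one chromosomally integrated HIV-1 vpr copy, was seeded at OD 0.01 in PMG+AL medium with 23 nL pinned compound. After 24 h at 30 °C and 99% humidity, viability was read by BacTiter-Glo luminescence.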
StopGo reporter = lowers the luciferase signal of an FMDV 2A StopGo reporter. human cells with a luciferase reporter of 2A StopGo recoding; control for the full effect not named in the record. Potency, µM (doses to about 57.9 µM), for inactives: top-dose signal change, negative = less light. actives 1.2% (n = 410,000); active = well fitted falling curve with a large enough effect; inconclusive = small, poorly fitted or top-dose-only effect; inactive = no such curve, though single readings can be large or run the other way; tested in HEK293T cells; further: nearly all actives have a fitted effect of over 45% in size; luciferase light after 4 h
* = called active by the depositor; ? = inconclusive; [ ] = dose if it differs, or a comment. On the % scale 0 is the no-effect control and ±100 the full control effect; potency means the concentration at half of the fitted maximal effect.

SMILES	RE007 growth inh	StopGo reporter
C(#CSCc1ccccc1)SCc1ccccc1	-11%	30%[activator]
COc1ccc(CN2C[C@@H](CO)O[C@@H](n3cnc4c(N5CCN(c6ccccc6)CC5)ncnc43)C2)cc1	8%	-18%
COc1ccccc1Cc1c(-c2ccc(C#N)cc2)nc2c(Cl)cc(C(F)(F)F)cn12	-14%	-15%
CCC(=O)OCC(=O)C1(OC(=O)CC)[C@H](C)C[C@H]2[C@H]3[C@H]([C@@H](O)C[C@@]21C)[C@@]1(C)C=CC(=O)C=C1C[C@H]3Cl (stereo partly drawn)	-6%[18.4 µM]	?
O=C(Nc1ccccc1[N+](=O)[O-])OCC=Cc1ccccc1	-22%	27%
COc1ccc(C(O)c2nc(-c3cccc(CO)c3)cs2)cc1 (stereo not drawn)	27%	0%
COc1ccc(NC(=O)C2Cc3c(-c4cccc(NC(C)=O)c4)ccnc3O2)cn1 (stereo not drawn)	0%[18.4 µM]	?
O=C1CCCCCC(=O)[C@H](O)C[C@H](c2ccccc2)O1	-7%	-21%
COc1ccccc1CNC(=O)c1cc(-c2ccc(F)cc2OC)n[nH]1	-2%[18.4 µM]	-9%
COc1c2c(c(OC)c3ccccc13)[C@@]1(OC2)O[C@H](CCO)C[C@H](O)[C@H]1O	-2%	-10%
CC(C)Nc1nc(NCCN2CCNC2=O)c2sccc2n1	-2%	10%
COc1ccc(C(=O)O)cc1S(=O)(=O)Nc1cc(C(F)(F)F)ccc1N1CCCCC1	-1%	-7%
CC(CO)NS(=O)(=O)c1cccc(Cl)c1F (stereo not drawn)	22%	-3%
Cc1ccc2nc(-c3ccc(NC(=O)C(C)Sc4nncs4)cc3)sc2c1 (stereo not drawn)	-15%	-56%
CNC(C)C#Cc1ccc2c(=O)c3ccccc3oc2c1 (stereo not drawn)	-20%	21%
COc1ccc(-c2cnc3c(NC(C)=O)cc(-c4cccc(C(=O)NCCO)c4)cn23)cc1OC	-4%	-10%
C[C@@H]1CN([C@@H](C)CO)C(=O)CCCn2cc(nn2)CO[C@H]1CN(C)S(=O)(=O)c1ccc(C#N)cc1	1%	3%
OC[C@H]1O[C@@H](c2nc(-c3ccccc3Br)no2)[C@H](O)[C@@H](O)[C@H]1O	6%	-18%
COC(=O)c1cccc(CN2C(=O)C(C)Sc3ccc(C#N)cc32)c1 (stereo not drawn)	0%	-23%
O=C1N[C@@H](Cc2c[nH]c3ccccc23)C(=O)N[C@H]1Cc1ccccc1	-13%	-8%

Retrieved by structure from the entries so far, 7 records:
SMILES	RE007 growth inh	StopGo reporter
C(#CSCc1ccccc1)SCc1ccccc1	-11%	30%[activator]
OC[C@H]1O[C@@H](c2nc(-c3ccccc3Br)no2)[C@H](O)[C@@H](O)[C@H]1O	6%	-18%
COc1ccc(NC(=O)C2Cc3c(-c4cccc(NC(C)=O)c4)ccnc3O2)cn1 (stereo not drawn)	0%[18.4 µM]	?
CC(CO)NS(=O)(=O)c1cccc(Cl)c1F (stereo not drawn)	22%	-3%
CCC(=O)OCC(=O)C1(OC(=O)CC)[C@H](C)C[C@H]2[C@H]3[C@H]([C@@H](O)C[C@@]21C)[C@@]1(C)C=CC(=O)C=C1C[C@H]3Cl (stereo partly drawn)	-6%[18.4 µM]	?
COc1c2c(c(OC)c3ccccc13)[C@@]1(OC2)O[C@H](CCO)C[C@H](O)[C@H]1O	-2%	-10%
COc1ccc(C(O)c2nc(-c3cccc(CO)c3)cs2)cc1 (stereo not drawn)	27%	0%

Returning to the listing; the three compounds before the break are reprinted first.
SMILES	RE007 growth inh	StopGo reporter
OC[C@H]1O[C@@H](c2nc(-c3ccccc3Br)no2)[C@H](O)[C@@H](O)[C@H]1O	6%	-18%
COC(=O)c1cccc(CN2C(=O)C(C)Sc3ccc(C#N)cc32)c1 (stereo not drawn)	0%	-23%
O=C1N[C@@H](Cc2c[nH]c3ccccc23)C(=O)N[C@H]1Cc1ccccc1	-13%	-8%
O=[N+]([O-])c1ccc(Sc2ccncn2)c([N+](=O)[O-])c1	-25%	28µM*
O=C(CNC(=O)C12CC3CC(CC(C3)C1)C2)N1CCCC(C(F)(F)F)C1 (stereo not drawn)	-7%	-4%
Cn1ccnc1SCC(=O)c1ccc(F)cc1	-5%	50%[activator]
C[C@@H]1CN([C@H](C)CO)C(=O)c2cc(Br)cnc2O[C@@H]1CN(C)Cc1ccc(F)cc1	2%	-9%
COC(=O)[C@@]12C[C@@H](CC(=O)NCc3cccc(C(F)(F)F)c3)C(=O)N(Cc3ccco3)C1=CCC(C)(C)C2	0%	-15%
O=C(Nc1ccc(F)c(Cl)c1)c1cc(C2CCCCN2C(=O)CCc2ccccc2)on1 (stereo not drawn)	13%	-20%
CCCCN(C(=O)c1ccc(S(=O)(=O)N(C)c2ccccc2)cc1)c1c(N)n(CCC)c(=O)[nH]c1=O	-10%	-14%
CN1CCN(C(=O)c2ccc(-c3ccc(F)c(F)c3)c3ccoc23)CC1	3%[18.4 µM]	-6%
O=C(Nc1ccccc1Cl)c1cc(C2CCCN(C(=O)c3cccc(O)c3)C2)on1 (stereo not drawn)	11%	10%
COc1ccc(/C=C/C(=O)OCC(=O)N2CCN(S(=O)(=O)c3ccc(C)cc3C)CC2)cc1OC	9%	?
Oc1cccc2c3c(oc12)CCCC3	-14%	49%[activator]
Cc1cc(N2CCN(C(C(=O)NC3CCCC3)c3ccc(-c4ccccc4)cc3)CC2)c2ccccc2n1 (stereo not drawn)	-30%	0%
O=C(NC1CCCCC1)C(c1ccccc1F)n1c(=O)c(-c2ccco2)nc2ccccc21 (stereo not drawn)	-5%	-6%
Cc1cn([C@H]2C[C@H](O)[C@@H](CNS(=O)(=O)N3CCCC3)O2)c(=O)[nH]c1=O	4%	-11%
O=C(NCc1cccs1)C1Cc2c(-c3ccc(Cl)cc3)ccnc2O1 (stereo not drawn)	-11%	-20%
Cc1csc(-c2nc3ccccc3n2C(C)c2nc3ccccc3[nH]2)c1 (stereo not drawn)	-15%	-2%
CCCCCc1c(-c2ccccc2)ncn1CCc1ccccc1OC	?	-7%
CCOC(=O)C1=CCN(S(=O)(=O)c2ccc(C)cc2)C1c1cccc2ccccc12 (stereo not drawn)	9%	-21%
C=CCCC(=O)N1C[C@H]2CON(C)[C@H]2C[C@H]1c1cccc(Nc2ccccc2)c1	-16%	-17%
COC(=O)C[C@H]1C[C@@H]2c3cc(NC(=O)NC4CCCC4)ccc3O[C@@H]2[C@@H](CO)O1	-20%	-15%
C[C@H]1CN([C@@H](C)CO)S(=O)(=O)c2ccc(C#Cc3ccccn3)cc2O[C@H]1CN(C)Cc1ccc(F)cc1	12%	0%
CN1C[C@@H]2[C@@H]3C(=O)N(C)C(=O)[C@@H]3[C@](C)(C1=O)N2C(=O)c1ccc(C(F)(F)F)cc1	10%	-12%
CCOc1ccc(Cl)cc1-c1cc(C(=O)NCc2cccc(C(F)(F)F)c2)[nH]n1	1%	-17%
C[C@H]1CN([C@@H](C)CO)S(=O)(=O)c2ccc(Br)cc2O[C@H]1CN(C)C(=O)Cc1ccncc1	2%	-6%
CCO[C@H]1OC(C(=O)O)=C[C@@H](C(C)(C)C)[C@@H]1CCCO	0%	0%
CCC(c1nnnn1-c1ccc2c(c1)OCCO2)N1CCC2(CC1)C(=O)NCN2c1ccccc1 (stereo not drawn)	4%	12%
CC(=O)C[C@@H]1OC[C@H](C)N1S(=O)(=O)c1ccc(C)cc1	0%	-4%
C[C@@H]1CN([C@H](C)CO)C(=O)CCCn2nncc2CO[C@@H]1CN(C)C(=O)Oc1cccc2ccccc12	-5%	?
CCOC1=C2CN(S(=O)(=O)c3ccc(C)cc3)C(c3cccc(Cl)c3)CC2N(S(=O)(=O)c2ccc(C)cc2)C(c2ccncc2)C1 (stereo not drawn)	4%	-19%
O=C1c2ccccc2C(c2nnnn2Cc2ccccc2)N1C1CC1 (stereo not drawn)	11%	-18%
CCCC(C)(C)C(=O)N1CCC1(C)C(=O)NS(=O)(=O)c1cccc(Cl)c1 (stereo not drawn)	14%	6%
CS(=O)(=O)Nc1cccc(NC(=O)c2ccc(-n3ccnc3)c3ccoc23)c1	-21%[18.4 µM]	-8%
Cc1ccc(C(=O)OCC(=O)NC2CCCCCCC2)cc1C	-5%	-22%
CCCCn1nnnc1C(c1cc2ccccc2o1)N(C)Cc1ccccc1 (stereo not drawn)	1%	11%
FC(F)(F)C(F)(F)C(F)(F)c1nc2nc(Cl)c(Cl)nc2[nH]1	2%	-21%
N#CC1C(=O)Nc2cccnc21 (stereo not drawn)	-17%	4%
COCOCCn1cc(CN2CCS(=O)(=O)N(Cc3ccc(-c4cccc(CO)c4)cc3)C(C(C)C)C2=O)nn1 (stereo not drawn)	4%	0%
O=C(NCc1ccc2c(c1)OCO2)c1cc(-c2ccccc2)nn1CC1CC(c2cccnc2)=NO1 (stereo not drawn)	9%	24%
CC1CC(=O)c2cc(-c3ccccc3)oc2C1 (stereo not drawn)	-29%	55%[activator]
CCOC(=O)C1=CCC(c2ccco2)N(S(=O)(=O)c2ccc(C)cc2)C1 (stereo not drawn)	6%	-22%
Fc1cccc(Cc2c(C3CCCCC3)nc3c4ccccc4ccn23)c1	?	15%
Cn1c(=O)c2cc(NC(=O)NCc3ccc(F)cc3)ccc2n1C/C=C/c1ccccc1	21%	20%
CN1OC[C@@H]2CN(C(=O)Cc3ccccc3)[C@H](c3ccccc3Br)C[C@@H]21	13%	-11%
Cc1ccc(S(=O)(=O)N2C[C@@H](C)[C@]3(C2)[C@H](O)[C@H](OC(=O)NC2CC2)C[C@H]2C(=O)N(c4ccccc4)C(=O)[C@H]23)cc1	7%	?
O=C(NCc1ccc(Cl)cc1Cl)Nc1nc([C@@H]2O[C@H](CO)[C@@H](O)[C@H](O)[C@H]2O)cs1	-10%[18.4 µM]	-15%
COc1ccc(S(=O)(=O)N2CCCCC2)cc1NC(=O)c1cccc(S(=O)(=O)N2CC(C)OC(C)C2)c1 (stereo not drawn)	1%	-17%
CCOC(=O)C[C@H]1c2cc(F)ccc2S(=O)(=O)N1c1ccccc1	3%	22%
COc1ccc(C2CC=C(C(C)=O)CN2S(=O)(=O)c2ccccc2)cc1 (stereo not drawn)	6%	?
CCn1ncc(C(=O)Nc2ccc([N+](=O)[O-])cc2OC)c1C	-16%	-3%
CCCCCCCCN1C(=O)[C@H](CC(=O)NCc2cccc(C(F)(F)F)c2)C[C@@]2(C(=O)OCC)CCC=C12	0%	-14%
C[C@H](CO)N1C[C@H](C)[C@H](CN(C)S(=O)(=O)c2ccc(Oc3ccccc3)nc2)OCc2cnnn2CCCC1=O	2%	-3%
Cc1ccc(OC(=O)N(C)C[C@@H]2OCc3cnnn3CCCC(=O)N([C@@H](C)CO)C[C@H]2C)cc1	-2%	-3%
COc1ccc(-c2c(C(=O)c3ccccc3)[nH]c(N)c2C(=O)NCc2ccccc2)cc1OC	-3%	-14%
CCOc1ccc(NC(=O)CN(C)C(=O)CCCNC(=O)c2ccc(Cl)cc2)cc1OCC	-12%	20%
OCC1OC(n2ccc3c2ncn2ncnc32)C(O)C1O (stereo not drawn)	-8%	?
COc1ccccc1NS(=O)(=O)c1cc(C(=O)NC2CCN(Cc3ccccc3)CC2)ccc1C	-8%	0%
O=C(O)C[C@H]1c2cc(F)ccc2S(=O)(=O)N1Cc1ccccc1	-1%	-20%
COCCCNc1ccn2nc(-c3cccc(Cl)c3)cc2n1	?	-11%
CCN(c1ccccc1)S(=O)(=O)c1ccc(OCC(F)(F)F)c(NC(=O)c2ccc(=O)[nH]c2)c1	1%	-5%
Cc1c(NC(=O)COC(=O)c2cccc(F)c2)c(=O)n(-c2ccccc2)n1C	17%	-8%

More structures:
SMILES	RE007 growth inh	StopGo reporter
COc1ccc(C=C(C#N)C(=O)c2ccccc2)cc1	-6%	-15%
CCCCCCN1C[C@@H](O)[C@H](n2cc(-c3ccc(F)cc3)nn2)C[C@@H]1c1ccccc1	0%	-7%
Cc1ccc(S(=O)(=O)NC(=O)Cn2nnc(-c3ccccc3)c2COc2ccc3ccccc3c2)cc1	-1%	-10%
O=C(NC1CCCC1)C1c2ccccc2OCC(=O)N1CC(F)(F)F (stereo not drawn)	5%	0%
O=C(Nc1ccc(OCCO)cc1)c1csc([C@H]2C[C@H](O)[C@@H](CO)O2)n1	-10%[18.4 µM]	-14%
CN1C[C@@H](CO)O[C@@H](n2cnc3c(N4CCOCC4)ncnc32)C1	-4%	-24%
COc1cc([N+](=O)[O-])c(C)cc1NC(=O)c1ccc(OC)c(OC)c1	-6%	-12%
CCc1nc2c(OCc3ccc(OC(F)F)cc3)cccn2c1N(C)C(=O)c1cccs1	-4%	-25%
O=C(NCc1cccc(C(F)(F)F)c1)c1ccc2sc([C@H]3C[C@H](O)[C@@H](CO)O3)nc2c1	4%[18.4 µM]	-23%
O=C(Nc1ccc(NC(=O)c2ccccc2)c2ccccc12)c1ccccc1	-8%	-17%
COc1ccc(S(=O)(=O)N2CCCOC2CNC(=O)C(=O)NCCO)cc1 (stereo not drawn)	2%	-16%
CCc1nc2ccc(C(=O)NCCCn3ccnc3)cn2c1N(C)Cc1cccs1	?	0%
Cc1csc(=O)n1CCC(=O)OCC(=O)N(C)c1c(N)n(Cc2ccccc2)c(=O)[nH]c1=O	9%	?
CCCS(=O)(=O)NC(=O)C1(C)CCCN(C(=O)c2ccc(OC)cc2OC)C1 (stereo not drawn)	12%	-22%
CCn1nccc1NC(=O)c1csc([C@@H]2O[C@H](CO)[C@H](O)[C@H](O)[C@H]2O)n1	8%	-18%

Only part of the results is shown; the hit share may differ from the screen's.
